LASV entry inh: qHTS for Inhibitors of binding or entry into cells for Lassa Virus | Lassa virus pseudotype entry inhibition, cell reporter; control for the full effect not named in the record | Potency, µM (titrated, usually from 37.9 µM), for inactives: at the highest dose activity change, negative = inhibition, hits mostly inhibitors | actives 1.2% (n = 300,000); active means well fitted inhibition curve with a large enough effect; inconclusive means small, poorly fitted or top-dose-only effect, or effect the other way; inactive means flat fitted curve, though single readings scatter; tested in HEK293 cells; note: % is set by controls: 0 for no effect and ±100 for the full control effect; nearly all actives have a fitted effect of over 50% in size; luciferase read-out
NS1 function inh: qHTS Assay for Inhibitors of Influenza NS1 Protein Function; actives 0.4% (n = 270,000); S. cerevisiae slowed by influenza A NS1, growth recovery by OD600; Potency, µM (series often up to 46.1 µM), without a hit: at the highest dose activity, positive = more growth; note: actives are rising curves; nearly all actives have a fitted effect of over 50% in size
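A cell-based growth assay was used: compounds that relieve NS1-induced slow growth of budding yeast raise OD600. Assay medium was yeast nitrogen base with ammonium sulphate and -URA supplement, pH 6.0, with 2% galactose.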
StopGo reporter: High Throughput Screening for Foot and Mouth Disease Virus Antivirals. actives 1.2% (n = 410,000). AID 1159524, 2015. human cells with a luciferase reporter of 2A StopGo recoding; control for the full effect not named in the record. Potency, µM (highest dose often 57.9 µM), without a hit: at the top dose signal change, negative = less light; active = well fitted falling curve with a large enough effect; inconclusive = small, poorly fitted or top-dose-only effect; inactive = no such curve, though single readings can be large or run the other way; tested in HEK293T cells; note: % is set by controls: 0 for no effect and ±100 for the full control effect; nearly all actives have a fitted effect of over 45% in size; luciferase light after 4 h
Marburg entry inh: qHTS for inhibitors of binding or entry into cells for Marburg Virus | Marburg virus pseudotyped entry inhibition, cell reporter; control for the full effect not named in the record; about a third of the inactives were read at about 46 µM | Potency, µM (doses to about 37.8 µM), for inactives: top-dose activity change, negative = inhibition, actives largely listed as inhibitors | actives 1.8% (n = 300,000); active = well fitted inhibition curve with a large enough effect; inconclusive = small, poorly fitted or top-dose-only effect, or effect the other way; inactive = flat fitted curve, though single readings scatter; tested in HEK293 cells; about a fifth of its hits are not listed in these tables; note: % is set by controls: 0 for no effect and ±100 for the full control effect; luciferase read-out
Cruzain noTriton: qHTS Assay for Promiscuous and Specific Inhibitors of Cruzain (without detergent); Cruzipain (Trypanosoma cruzi), P25779; purified cruzain, Z-FR-AMC fluorescence, no detergent; Potency, µM, for inactives: max response, negative = inhibition, actives largely listed as inhibitors; actives 2.3% (n = 200,000); active = well fitted curve in the direction sought with a large enough effect; inconclusive = small, poorly fitted or top-dose-only effect, or another doubt; inactive = no such curve, though single readings can be large; an effect the other way counts as inactive or inconclusive;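 note: plate controls were enzyme without inhibitor for no effect and buffer without enzyme for full effect; nearly all actives have a fitted effect of over 40% in size; top concentration of the series not given in the record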
Target sequence (P25779 123-467 limits assumed): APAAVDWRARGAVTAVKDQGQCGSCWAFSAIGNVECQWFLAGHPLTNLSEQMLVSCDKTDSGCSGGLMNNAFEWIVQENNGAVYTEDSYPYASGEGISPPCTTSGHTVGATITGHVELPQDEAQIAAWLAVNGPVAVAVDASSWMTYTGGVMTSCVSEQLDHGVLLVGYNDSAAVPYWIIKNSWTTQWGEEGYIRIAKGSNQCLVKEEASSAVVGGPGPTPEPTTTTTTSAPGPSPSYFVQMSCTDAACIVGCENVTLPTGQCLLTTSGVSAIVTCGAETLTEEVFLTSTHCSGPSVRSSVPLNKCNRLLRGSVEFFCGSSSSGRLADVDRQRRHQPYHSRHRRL
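Detergent-free condition (0.00005% Triton X-100) in acetate buffer pH 5.5 with DTT. 1.5 nM enzyme and compound were pre-mixed 15 min, then 2 uM Z-FR-AMC substrate added; reaction progress from fluorescence change between first and third reads (60 s).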
SARS PLpro yeast: qHTS of Yeast-based Assay for SARS-CoV PLP. Potency, µM (top dose mostly 32.9 µM), for inactives: top-dose activity, positive = growth rescue. AID 485353, 2010. S. cerevisiae expressing SARS-CoV PLpro, growth rescue; control for the full effect not named in the record. actives 0.19% (n = 330,000); note: 0% is about no effect; nearly all actives have a fitted effect of over 55% in size; growth read by luminescence after 48 h
RE007 growth inh: qHTS Assay for Inhibitors of the HIV-1 protein Vpr; AID 651644, 2012; Potency, µM (top dose mostly 92.2 µM), without a hit: top-dose activity change, negative = less growth; actives 0.21% (n = 360,000); S. pombe RE007 Vpr strain, BacTiter-Glo ATP luminescence, 24 h; control for the full effect not named in the record; active = well fitted falling curve with a large enough effect; inconclusive = small, poorly fitted or top-dose-only effect; inactive = no such curve, though single readings can be large or run the other way;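 note: % is set by controls: 0 for no effect and ±100 for the full control effect; nearly all actives have a fitted effect of over 50% in size; the assay follows cell death caused by Vpr and the record does not say whether a fall means rescue or toxicity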
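Fission yeast strain RE007, carrying one chromosomally integrated HIV-1 vpr copy, was seeded at OD 0.01 in PMG+AL medium with 23 nL pinned compound. After 24 h at 30 °C and 99% humidity, viability was read by BacTiter-Glo luminescence.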
Cruzain Triton: qHTS Assay for Promiscuous and Specific Inhibitors of Cruzain (with detergent); actives 0.43% (n = 200,000); purified cruzain, Z-FR-AMC fluorescence, 0.01% Triton; Potency, µM, without a hit: max response, negative = inhibition, most hits filed as inhibitors; Cruzipain (Trypanosoma cruzi), P25779; active = well fitted curve in the direction sought with a large enough effect; inconclusive = small, poorly fitted or top-dose-only effect, or another doubt; inactive = no such curve, though single readings can be large; an effect the other way counts as inactive or inconclusive;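 note: plate controls were neutral wells for no effect and buffer without enzyme for full effect; nearly all actives have a fitted effect of over 40% in size; top concentration of the series not given in the record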
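Cruzain (1.5 nM) preincubated 15 min at RT with compound in 100 mM sodium acetate pH 5.5, 5 mM DTT, 0.01% Triton X-100. Reaction started with 2 uM Z-FR-AMC; AMC fluorescence (ex 360/em 450 nm) change over 60 s gave rate.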
An asterisk follows results filed as active; ? = inconclusive; / = not tested or not shown; [ ] = another dose, or the depositor's remark. Unless noted, calls come from the whole dose curve; as a rule, active means well fitted rising curve with a large enough effect; inconclusive means small, poorly fitted or top-dose-only effect; inactive means no such curve, though single readings can be large or run the other way. Potency is the fitted concentration of half-maximal effect.

SMILES	LASV entry inh	NS1 function inh	StopGo reporter	Marburg entry inh	Cruzain noTriton	SARS PLpro yeast	RE007 growth inh	Cruzain Triton
Cc1nn(C)cc1CN(C)Cc1c(C(=O)N(C)Cc2ccccc2)nc2ccccn12	20%[46.1 µM]	3%	-15%	1%[46.1 µM]	/	-1%	15%	/
O=C(Nc1ccc2oc(=O)ccc2c1)c1cc2ccccc2o1	-7%	25%	43%[activator]	?	-29%	-38%	-10%	-2.9%
Cc1c(NC(=O)COc2ccc3ccccc3c2)c(=O)n(-c2ccccc2)n1C	-1%	8%	-13%	17%[46.1 µM]	/	-16%	-1%	/
CN(Cc1ccccc1)C(=O)c1ccccc1C(=O)O	-11%[46.1 µM]	/	14%	-1%[46.1 µM]	/	-2%	-5%	/
CCc1ccccc1NC(=O)N[C@@H](C)C(=O)O	3%	7%	2%	25%	-10%	3%	15%	0.0%
Cc1ccc(C(=O)C2CCN(C(=O)c3ccc(C)cc3)CC2)cc1	/	-41%	-45%	/	/	-1%	18%	/
C#CC(C)(CC)NC(=O)c1cc2cccc(CC=C)c2oc1=O (stereo not drawn)	?	/	-8%	-6%[46.1 µM]	/	-4%	-5%	/
COc1cccc(C(=O)NCCc2csc3nc(-c4ccccc4F)nn23)c1OC	-13%[46.1 µM]	/	0%	/	-5%	/	/	-3.2%
CCCCOc1ccc2c(C)cc(=O)oc2c1OCCCC	4%	11%	?	?	25%	8%	-8%	-13%
CCC(Sc1nccn1C)C(=O)Nc1nnc(C)s1 (stereo not drawn)	/	?	-18%	/	8%	1%	-1%	-1.0%
Cc1ccc(-c2nc3sccn3c2Nc2ccc(C)c(C)c2)cc1	20%[46.1 µM]	/	10%	21%[46.1 µM]	?	/	/	-11%
O=C(Cc1ccc(S(=O)(=O)N2CCOCC2)s1)Nc1cc(C(F)(F)F)ccc1N1CCCC1	?	/	-30%	?	/	0%	3%	/
CC(=O)N1c2ccccc2CC1C(=O)N1CCN(c2cccc(C)c2C)CC1 (stereo not drawn)	-19%[46.1 µM]	/	0%	/	3%	/	/	-1.3%
Cc1cc(C)c(C(=O)c2cccs2)c(C)c1	?	/	-6%	1%[46.1 µM]	/	/	11%	/
Cc1ccc(C)c(/C(O)=C2\C(=O)C(=O)N(CCCN3CCOCC3)C2c2cccnc2)c1 (stereo not drawn)	-9%	10%	-8%	?	4%	7%	-17%	0.7%
COc1ccc(Oc2nccc(-c3ccc(F)cc3)c2C#N)cc1	2%	-20%	-2%	20%	-4%	-2%	10%	-4.8%
CC1CN(CCCCSc2ccc(Cl)cc2)CC(C)O1 (stereo not drawn)	/	-48%	-29%	/	/	-3%	3%	/
COCCNC(=O)CN1C(=O)c2cccnc2Sc2ccccc21	0%[46.1 µM]	/	15%	/	1%	/	/	2.0%
O=C(CN1CCOCC1)Nc1nc(-c2ccccc2)cs1	?	-3%	-7%	-22%[46.1 µM]	/	1%	-5%	/
N#Cc1ccccc1N=C1CCCN1Cc1ccccc1	30%	-7%	-3%	8%[46.1 µM]	0%	-11%	6%	6.1%
Fc1ccc(CN2CCCN(Cc3nc(-c4ccc5c(c4)OCO5)no3)CC2)cc1	/	-3%	-6%	/	/	0%	0%	/
O=C(CSc1nc2ccc([N+](=O)[O-])cc2[nH]1)NCCc1ccccc1	1%	15%	-21%	-19%	4%	4%	-1%	2.0%
Cc1ccc(CCNC(=O)C2=CCN(S(=O)(=O)c3ccccc3)CC2)cc1	?	-5%	0%	2%[46.1 µM]	/	-8%	13%	/
Cc1cc(=O)c2cc(C(=O)Nc3cccc(C)c3C)ccc2[nH]1	-2%[46.1 µM]	/	8%	19%[46.1 µM]	0%	/	/	-3.2%
Cn1c(CN2CCN(C(=O)c3ccc(F)cc3)CC2)nc2cc([N+](=O)[O-])ccc21	?	-7%	?	?	4%	8%	-12%	-5.4%
CC1CCN(c2nc(N(C)c3ccccc3)nc(N)c2[N+](=O)[O-])CC1	15%	-3%	2%	-2%[14.2 µM]	/	-2%	-6%	/
O=C(COC(=O)c1ccc([N+](=O)[O-])o1)Nc1cccc(S(=O)(=O)N2CCOCC2)c1	?	6%	-3%	6%	-9%	2%	-17%	-4.3%
Cc1nc(N2CCN(Cc3ccc4c(c3)OCO4)CC2)[nH]c(=O)c1C	/	3%	-6%	/	/	3%	5%	/
COc1ccc(NC(=O)CCSc2nc(-c3ccco3)cc(C(F)(F)F)n2)cc1OC	-11%[46.1 µM]	/	-8%	?	26%	/	/	-6.8%
O=C(CCCCCn1c(=O)[nH]c2ccccc2c1=O)NCCc1c[nH]c2ccccc12	-12%	4%	?	-27%	1%	3%	-22%[3.69 µM]	0.0%
S=C(NCCSCc1ccc(Cl)cc1)Nc1ccccc1	?	-176%	41%[activator]	12%	-9%	-24%	-13%	-10%
CC1(C)O[C@@H]1COc1c2ccoc2cc2oc(=O)ccc12	1%	5%	-5%	-1%	4%	2%	-1%	-0.2%
Cc1ccc(NC(=S)NCCN2CCOCC2)cc1C	-6%	4%	19%	24%	12%	3%	9%	6.2%
Cc1ccc(C)c(N(C(=O)CNC(=O)c2ccco2)C(C(=O)NC2CCCC2)c2ccncc2)c1 (stereo not drawn)	2%	-13%	14%	13%[46.1 µM]	/	1%	-18%	/
CC(C)Oc1cccc(C(=O)C2CCCN(C(=O)CCn3cnnn3)C2)c1 (stereo not drawn)	-6%[46.1 µM]	0%	10%	-39%[46.1 µM]	/	1%	9%	/
NC(=O)c1ccccc1N=Cc1ccccn1	3%	1%	12%	0%	-2%	3%	1%[3.69 µM]	1.1%
Cc1ccccc1NC(=O)c1cccc(N2C(=O)C3CCC(C)CC3C2=O)c1 (stereo not drawn)	-1%[46.1 µM]	-12%	-8%	12%[46.1 µM]	/	-1%	-15%	/
O=C(CN1CCN(c2ccccn2)CC1)N1CC(O)CO1 (stereo not drawn)	0%[46.1 µM]	4%	8%	-11%[46.1 µM]	/	1%	6%	/
COc1ccc([N+](=O)[O-])cc1NC(=O)Nc1ccccc1	0%	11%	-19%	-6%	0%	12%	16%	-8.4%
Cc1ccc(S(=O)(=O)NC(C)(C)C)cc1C(=O)OCC(=O)N1CCCC1=O	8%	/	40%[activator]	-2%	/	-4%	17%	/
C=CCn1c(-c2cccnc2Cl)nc2cc(Cl)c(Cl)cc21	0%	0%	-16%	-8%	3%	-4%	-6%	-2.3%
Cc1nnc(NC(=O)c2c(F)c(F)c(F)c(F)c2F)s1	5%	-14%	-28%	-8%	0%	1%	-3%	2.2%
NC(N)=N/N=C/c1cccc([N+](=O)[O-])c1O	15%	-37%	-3%	9%[46.1 µM]	/	-2%	-24%	/
COc1ccc(Nc2nc(NCCN3CCOCC3)nc(Nc3ccc(OC)cc3)n2)cc1	11%	0%	-18%	?	/	0%	-15%	/
CCCn1c(SC/C(O)=C(\C#N)c2nc3ccccc3[nH]2)n[nH]c1=O	5%	8%	14%	-6%[46.1 µM]	/	0%	-3%	/
O=C(NCc1ccccc1F)C1CCCN1C(=O)Nc1ccccc1 (stereo not drawn)	/	4%	15%	/	/	-4%	-2%	/
CCN(Cc1nc2cc(Cl)ccc2c(=O)[nH]1)C(=O)c1cc(C2CC2)nn1-c1ccccc1	-24%	/	4%	-20%	/	2%	4%	/
O=C1CC(NS(=O)(=O)c2ccccc2)CN1c1ccc2c(c1)OCCO2 (stereo not drawn)	-8%	/	1%	10%	/	4%	32%	/
CCN1C(=O)[C@H]2[C@@H](c3ccc(C)cc3)N3C(=O)N(c4ccc(OC)cc4)C(=O)[C@@]3(Cc3ccc(Cl)cc3)[C@H]2C1=O	/	30%	-9%	/	/	5%	21%	/
CCOC(=O)CC(N)c1ccc2c(c1)OCO2 (stereo not drawn)	19%	0%	/	-1%	5%	1%	-7%	1.0%
COc1cccc(CN2CCN(CC#Cc3ccccc3)CC2CCO)c1 (stereo not drawn)	/	3%	5%	/	/	2%	6%	/
CN(CCOCCOc1ccc(F)cc1)Cc1ccccc1	/	-2%	-11%	/	/	-1%	2%	/
CC1CCN(C(=O)c2cc(-c3ccc(Br)cc3)on2)CC1	26%[46.1 µM]	/	72%[activator]	?	-5%	/	/	0.9%
CCC(Oc1ccccc1)C(=O)Nc1cc(C(F)(F)F)ccc1N1CCOCC1 (stereo not drawn)	-1%	/	?	-28%	/	0%	-6%	/
Cc1ccc(CCNC(=O)C2CCN(S(=O)(=O)c3c(C)nn(C)c3C)CC2)cc1	/	-9%	-10%	/	10%	-3%	0%	-0.3%
Oc1c(Cl)c(Cl)c2ncccc2c1Cl	5%[46.1 µM]	/	-22%	?	/	/	?	/
O=C(NCc1ccccn1)C(=O)NCC1OCCN1S(=O)(=O)c1ccc([N+](=O)[O-])cc1 (stereo not drawn)	15%	1%	-24%	-5%	/	-5%	-22%	/
Cn1cccc1C(=O)NC(=O)CSc1nnc(C2CC2)n1-c1ccccc1	?	3%	5%	?	-5%	10%	3%	4.0%
O=C(CCCN1C(=O)NC2(CCCC2)C1=O)Nc1ccc(Cl)c(S(=O)(=O)N2CCOCC2)c1	?	/	-22%	0%	/	1%	1%	/
C=CCCC(=O)NC1CC(C)(C)Cc2c1cnn2-c1ccc(OC)cc1 (stereo not drawn)	/	-1%	-17%	/	/	-1%	-2%	/
CC1CC(C)(C)CC2(C1)NC(=O)N(CC(=O)N(Cc1ccccc1)c1ccccc1)C2=O (stereo not drawn)	-7%	/	-22%	?	/	-4%	-7%	/
CC(Oc1ccc([N+](=O)[O-])cc1)C(=O)NCCCN1CCOCC1 (stereo not drawn)	10%	13%	-6%	20%	/	5%	-17%	/

Screening results as filed in PubChem.
